Compound activity (PubChem)
KCNQ2 enhance: KCNQ2 (rat) channel potentiation. O88943. CHO-K1 KCNQ2, FluxOR thallium flux fluorescence; stronger effect = higher value. B-score at 10 µM. hit rate 0.54% among 310,000;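 active = fluorescence ratio B-score at least 3 SD of library B-scores, with initial fluorescence B-score within 3 SD, cut at about 5.3 in these data; same plate scores as AID 2156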;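 also: B-score of peak minus minimum over baseline fluorescence ratio after K+ and Tl+ stimulus; positive B-score means potentiation of KCNQ2 with more thallium influx and brighter signal; only the inactives scoring about 0 or higher are listed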
Target sequence (O88943 whole entry, looked up): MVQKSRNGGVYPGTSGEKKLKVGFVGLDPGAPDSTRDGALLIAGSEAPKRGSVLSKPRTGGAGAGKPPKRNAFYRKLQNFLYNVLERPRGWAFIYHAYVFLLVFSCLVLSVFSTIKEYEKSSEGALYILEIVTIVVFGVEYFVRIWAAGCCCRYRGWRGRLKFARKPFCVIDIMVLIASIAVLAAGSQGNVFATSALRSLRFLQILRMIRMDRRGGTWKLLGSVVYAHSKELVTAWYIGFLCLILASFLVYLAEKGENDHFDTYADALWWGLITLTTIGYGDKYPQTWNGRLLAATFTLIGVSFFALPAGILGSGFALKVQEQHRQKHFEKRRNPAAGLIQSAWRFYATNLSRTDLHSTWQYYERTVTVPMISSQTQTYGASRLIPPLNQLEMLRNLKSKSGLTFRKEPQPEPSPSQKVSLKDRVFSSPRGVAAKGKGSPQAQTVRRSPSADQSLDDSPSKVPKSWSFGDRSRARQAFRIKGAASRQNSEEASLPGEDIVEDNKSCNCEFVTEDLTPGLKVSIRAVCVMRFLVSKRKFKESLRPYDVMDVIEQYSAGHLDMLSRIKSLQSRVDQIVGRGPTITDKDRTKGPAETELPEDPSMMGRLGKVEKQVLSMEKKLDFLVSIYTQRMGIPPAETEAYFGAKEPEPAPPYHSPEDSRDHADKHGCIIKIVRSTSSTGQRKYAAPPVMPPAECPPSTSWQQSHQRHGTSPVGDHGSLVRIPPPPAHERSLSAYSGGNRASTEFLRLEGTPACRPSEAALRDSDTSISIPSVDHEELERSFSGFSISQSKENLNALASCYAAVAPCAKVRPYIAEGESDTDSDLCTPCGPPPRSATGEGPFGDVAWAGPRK
KCNQ2 enhance baseline: second read-out of KCNQ2 enhance, no call of its own (marks repeat the call); B-score; compound at 10 µM; measured here: initial fluorescence intensity artifact check;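 brightness before thallium and not channel activity; 0 = typical well and far values either way flag optical interference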
* marks the source's active call; other numbers are inactive results. This is a subset; the hit share may differ from the screen's.

SMILES	KCNQ2 enhance	KCNQ2 enhance baseline
O=C(CCN1CCCCC1)NCC1OCCc2ccccc21 (stereo not given)	0.11	0.71
COc1ccc(OC)c(-n2c(SC)nnc2-c2c[nH]c3ccccc23)c1	0.06	-0.15
COc1ccc(CCn2nnnc2C(C(C)C)N2CCN(c3ncccn3)CC2)cc1OC (stereo not given)	1	0.13
COc1ccc(C(F)(F)F)cc1N/C=C\c1nnnn1-c1ccccc1	0.02	-0.57
Cc1ccnc(NS(=O)(=O)c2ccc(NC(=O)C34CC5CC(C)(CC(C)(C5)C3)C4)cc2)n1	0.25	0.56
O=C(CN(C(=O)c1csnn1)c1ccccc1Cl)NC1CCCC1	0.63	-0.36
O=C(Nc1ccc(SC(F)F)cc1)c1ccc(F)cc1	0.26	-0.02
CNc1ncc(C(=O)c2ccc(F)cc2)s1	0.67	-0.77
CCOC(=O)N1CCN(C(=O)CSc2nc(CC)nc3c2c(=O)n(C)c(=O)n3C)CC1	4.7	0.64
CC(=O)c1ccc(OC(=O)COc2ccccc2)cc1	1.9	-1.6
O=C(Cn1nc(-c2ccc(Cl)cc2)ccc1=O)NCC1COCCO1 (stereo not given)	0.33	-0.02
O=c1c2c(nc3c(-c4ccccc4)c[nH]n13)CCC2	0.61	0.29
CCOc1ccc(/C=N/OCC(=O)Nc2ccc(OCc3ccccc3)cc2)cc1OC	0.72	0.82
CC(Oc1ccc2c3c(c(=O)oc2c1)CCCC3)C(=O)NCCN1CCOCC1 (stereo not given)	2.7	-0.42
CC(=O)ON1C(C)(C)CC(OC(=O)c2ccccc2)CC1(C)C	0.03	-0.04
CN(NS(=O)(=O)c1ccc(F)cc1)c1ncc(C(F)(F)F)cc1Cl	0.59	1.2
O=c1[nH][nH]c(C(F)(F)F)c1C=Nc1cccc(Cl)c1	1.3	-1.9
CN(CC(=O)Nc1ccc(S(N)(=O)=O)cc1)Cc1ccccc1F	0.19	-0.36
CN(C)c1ccc(/C=N/NC(=O)c2sccc2-n2cccc2)cc1	0.56	0.01
O=C(Nc1ccccc1)NC1CCCCCCC1	0.03	-0.92
COc1ccc(S(=O)(=O)c2nnn(-c3ccccc3Cl)c2N)cc1	2	-2.2
Cc1cccc(NC(=O)c2ccc(S(=O)(=O)C(F)F)cc2)c1C	0.77	-1.8
CC1(C)NC(=O)N(CCCCOc2ccc3ccccc3c2Cl)C1=O	0.86	-0.13
COC(=O)[C@H](C)NC(=O)Nc1ccc(OC(F)(F)F)cc1	1.2	-0.77
CCOc1ccc(S(=O)(=O)N(C)CCO)cc1-c1nc2c(C(C)(C)C)nn(C)c2c(=O)[nH]1	0.23	-0.04

Taken from the entries so far (four entries):
SMILES	KCNQ2 enhance	KCNQ2 enhance baseline
Cc1ccnc(NS(=O)(=O)c2ccc(NC(=O)C34CC5CC(C)(CC(C)(C5)C3)C4)cc2)n1	0.25	0.56
O=C(CN(C(=O)c1csnn1)c1ccccc1Cl)NC1CCCC1	0.63	-0.36
O=C(Nc1ccc(SC(F)F)cc1)c1ccc(F)cc1	0.26	-0.02
CNc1ncc(C(=O)c2ccc(F)cc2)s1	0.67	-0.77

Carrying on.
SMILES	KCNQ2 enhance	KCNQ2 enhance baseline
CC(=O)Nc1ccc(C(O)(C(F)(F)F)C(F)(F)F)cc1	0.98	0.01
COC(=O)CSC1=C(C#N)C(c2ccc(F)cc2)CC(=O)N1 (stereo not given)	0.3	0.62
COc1ccc2[nH]cc(CCNS(=O)(=O)c3ccc(C)cc3)c2c1	0.01	-0.09
Cc1cc(C)n(-c2nnc3c4ccccc4n(C)c3n2)n1	3.4	-1.5
Cc1ccc(NC(=O)C2=C(O)c3ccccc3N(C)S2(=O)=O)cc1	1.6	-2.4
Cn1c(=O)c2c(ncn2CC(=O)N/N=C/c2ccco2)n(C)c1=O	1.5	-0.82
CNc1ccc(Br)cc(C(=O)/C=C/c2ccc(OC)cc2OC)c1=O	0.01	-0.53
CN(CC(=O)NCc1ccc(Cl)cc1)S(=O)(=O)c1cccc2nsnc12	0.08	1.5
COc1ccccc1-c1ccc(SCC(=O)NC2CCCCC2)nn1	0.62	0.06
COc1ccc(NC(=S)N/N=C2\CC(C)(C)Oc3ccc(O)cc32)cc1	0.06	0.92
CCN(CC)C(=O)Nc1cnc2ccccc2c1	0.04	0.18
C[C@@H](C(=O)OCn1nnc2ccccc2c1=O)N1C(=O)C2CCCCC2C1=O (stereo not given in full)	0.39	-1.1
COc1ccc(C(=O)C(c2ccccc2)N2CCOCC2)cc1 (stereo not given)	1.2	0.52
CC1=NN(c2cccc(C(=O)O)c2)C(=O)/C1=C\C=C/c1ccccc1	7.2*	-0.04*
NS(=O)(=O)c1ccc(CCNC(=O)CN2CCN(Cc3cccc4ccccc34)CC2)cc1	0.67	-0.06
COCCCNC(=O)Cn1cc(/C=C(\C#N)C(=O)NC2CC2)c2ccccc21	0.59	0.9
CCOC(=O)C1CCN(S(=O)(=O)c2cc(C(=O)OC)n(C)c2)CC1	0.06	0.03
CCOC(=O)c1c(C)[nH]c(C(=O)OC(C)C(=O)NCc2ccccc2)c1C (stereo not given)	1.9	0.56
COCCCNC(=O)CN1C(=O)COc2ccc(S(=O)(=O)N3CCCCCC3)cc21	1.2	0.1
CCOP(=O)(Cc1ccc(C(C)(C)CC(C)=O)o1)OCC	0.09	1
CC(C)C(=O)NNS(=O)(=O)c1ccccc1	0.06	1.8
COCCCNC(=S)N(Cc1ccccc1)Cc1nc2ccccc2c(=O)[nH]1	0.85	-1
c1ccc(SCCOCCn2cncn2)cc1	1.3	-1.6
NS(=O)(=O)c1ccc(NC(=S)N2CCN(c3ccccc3Cl)CC2)cc1	0.49	-0.78
CCOC(=O)c1ccc(NC(=O)CSc2nc(=O)n(CCN3CCOCC3)c3c2CCC3)cc1	1.1	-3.8

Molecules above that contain a cyano group (two):
SMILES	KCNQ2 enhance	KCNQ2 enhance baseline
COC(=O)CSC1=C(C#N)C(c2ccc(F)cc2)CC(=O)N1 (stereo not given)	0.3	0.62
COCCCNC(=O)Cn1cc(/C=C(\C#N)C(=O)NC2CC2)c2ccccc21	0.59	0.9

(list continues)
SMILES	KCNQ2 enhance	KCNQ2 enhance baseline
CCOC(=O)c1c(NC(=S)NNS(=O)(=O)c2ccc(Br)cc2)sc2c1CCCCC2	1.9	-0.11
COc1ccccc1N1CCN(C2CCCN(C(=O)c3cc(C4CC4)on3)C2)CC1 (stereo not given)	0.05	-0.45
CCCCOc1ccc(C(=O)O)cc1	2	0.32
CN(C)S(=O)(=O)c1ccc(C(=O)Nc2ccc(CCC(=O)N3CCCC3)cc2)cc1	1.5	-0.66
COc1ccc(F)cc1S(=O)(=O)Nc1ccc2c(c1)OCCO2	0.54	1.4
COC(=O)c1[nH]c2ccc(Cl)cc2c1NC(=O)CCN1CCN(C2CCCCC2)CC1	0.55	0.95
O=C(NNc1c2ccccc2nc2ccccc12)C(O)c1ccccc1 (stereo not given)	1.4	-0.54
O=C(CSc1nc(=O)n2ccccc2n1)NCCc1ccccc1	0.25	1.6
CC1(c2nnc(-c3cccc(Cl)c3)o2)CC(c2ccccc2F)=NO1 (stereo not given)	0.12	0.7
Cc1ccc(-n2c(=O)[nH]cc(C(=O)N3CCc4ccccc43)c2=O)cc1C	0.08	0.1
O=C(NCc1ccco1)C(=O)NCC1OCCN1S(=O)(=O)c1ccccc1 (stereo not given)	0.78	-0.59
COc1cccc(C(=O)Nc2cccnc2)c1OC	0.6	-0.02
CCC(C)Nc1nc(OC)nc(N(C)C#N)n1 (stereo not given)	0.31	0.27
Cc1ccc2c(C)c(C(=O)NCc3ccc(S(N)(=O)=O)cc3)oc2c1C	0.33	-0.91
COc1cccc(-n2c(SCC(=O)NCc3ccco3)nnc2-c2c[nH]c3ccccc23)c1	1.4	-1.2
O=C(O)CSc1ccc2ccccc2n1	1.2	2.1
O=C(COC(=O)C1COc2ccccc2O1)Nc1ccc2c(c1)CCC2 (stereo not given)	0.26	0.74
COc1ccc(CCC(C)N2CCOCC2)cc1 (stereo not given)	0.81	0.01
CC(=O)c1c(Nc2cccc(F)c2)oc(C)cc1=O	1.4	3.1
CC(=O)c1ccc(N2CCN(C(=O)Nc3ccc(F)cc3F)CC2)cc1	2.1	-1.2
NC(=O)c1ccc(NC(=O)CCC(=O)c2cccs2)cc1	1.9	0.03
Cc1nc(SCC(=O)NC2CCCC2)[nH]c(=O)c1Cc1ccccc1	0.3	0.63
O=C(CSc1ncn[nH]1)c1ccc2c(c1)OCO2	0.84	-0.47
Nc1c(C(=O)N/N=C/c2ccccc2)cnn1-c1ccccc1	0.45	0.99
COc1ccc2[nH]c(=O)c(CN(C(=O)C3CCCO3)c3ccc(C)c(C)c3)cc2c1 (stereo not given)	0.9	-0.74

Fetched by compound from the entries so far:
SMILES	KCNQ2 enhance	KCNQ2 enhance baseline
COc1ccc(CCC(C)N2CCOCC2)cc1 (stereo not given)	0.81	0.01
CN(C)S(=O)(=O)c1ccc(C(=O)Nc2ccc(CCC(=O)N3CCCC3)cc2)cc1	1.5	-0.66
COC(=O)c1[nH]c2ccc(Cl)cc2c1NC(=O)CCN1CCN(C2CCCCC2)CC1	0.55	0.95
Nc1c(C(=O)N/N=C/c2ccccc2)cnn1-c1ccccc1	0.45	0.99

Following part.
SMILES	KCNQ2 enhance	KCNQ2 enhance baseline
CCCCn1c(CN2CCN(CCO)CC2)nc2ccccc21	0.01	-0.75
Cc1ccc(CN2CCN(c3ncccn3)CC2)o1	0.55	-0.44
CCOc1ccccc1CN1CCC(O)CC1	0.01	-0.82
Nc1ccccc1N1CCN(C(=O)c2ccccc2)CC1	0.52	-0.58
Cc1cccc(NC(=O)CCCSc2nc3ccccc3[nH]2)c1	0.1	0.07
CCc1ccc2[nH]c3nc(SCCN4CCOCC4)nnc3c2c1	0.03	2.1
Cc1ccc2c(ccc(=S)n2C)c1	0.18	-2
COc1ccc(CCNCc2ccccc2N2CCCC2)cc1	2.1	0.87
CCN(CC)CCNc1nc2c(c(=O)n(C)c(=O)n2C)n1C/C=C(/C)Cl	0.04	0
CCOc1ccc(N(CC(=O)Nc2ccccc2C(=O)NCc2ccco2)S(C)(=O)=O)cc1	1.3	-0.12
CC(C)c1nnc(NC(=O)CCC(=O)N2CCN(c3ccc(Cl)cc3)CC2)s1	0.58	-0.29
CCOC(=O)c1ccc(N2C(=O)CC(N3CCN(C(=O)c4ccco4)CC3)C2=O)cc1 (stereo not given)	0.19	-0.32
COc1ccccc1CNC(=O)CCC(=O)Nc1nnc(C)s1	1.6	-0.53
CC/C(=N\NC(=O)c1ccc(-c2ccccc2)cc1)C12CC3CC(CC(C3)C1)C2	0.19	-1.3
CCCNC1=C(C)C(=O)CC1	0.63	-1.1
O=C(NCC(c1cccnc1)N1CCN(c2ccc(F)cc2)CC1)C1CCCCC1 (stereo not given)	0.09	0.01
Cc1ccc(-n2c(Cc3cccs3)nnc2SCC(N)=O)cc1	0.65	-0.74
CCC(CC)C(=O)c1c[nH]c(C(=O)OC)c1	0.45	-0.31
O=C(Cn1c(=O)c2c(ncn2Cc2ccccc2)n(Cc2ccccc2)c1=O)N1CCCC1	1.9	-2.8
N#C/C(=C\Nc1ccc(F)c(Cl)c1)S(=O)(=O)c1ccccn1	0.16	-0.32
CN1CCC(=NNC(=O)CN(c2cccc(Cl)c2)S(C)(=O)=O)CC1	0.28	1.2
COc1cc(C(=O)NC2CCCc3ccccc32)cc(OC)c1OC (stereo not given)	0.36	-0.54
CN1CCN(c2ccc(CNC(=O)c3ccco3)cc2)CC1	0.78	0
COc1ccc(C(=O)Nc2sc3c(c2C(=O)O)CC(C)(C)OC3)cc1	0.79	-0.03
COc1ccc(C2=NN(C(=O)CSc3nnc(C)c(=O)n3N)C(c3ccco3)C2)cc1 (stereo not given)	0.31	1.3

Continuation:
SMILES	KCNQ2 enhance	KCNQ2 enhance baseline
CC(=O)c1cccc(NC(=O)c2cc(=O)c3ccccc3o2)c1	0.57	-0.37
COCCNC(=O)C(=O)NCC1OCCN1S(=O)(=O)c1cc(F)ccc1F (stereo not given)	0.39	0.03
O=C(NC1CCCCC1)c1ccc(CS(=O)(=O)Cc2ccccc2F)o1	1.5	0.66
Cc1ccc(NS(=O)(=O)c2ccc(CCC(=O)NC3CC3)cc2)cc1	0.02	2.1
COC(C/C=C/C(=O)[C@@H](C)OCc1ccccc1)OC	0.62	0
COc1ccccc1CNCC(=O)Nc1ccc(N(C)C)cc1	0.75	-0.01
CCC(NC(=O)C1CCC1)c1ccccc1 (stereo not given)	0.75	-2.2
CCn1nc(NC(=O)CC(C)C)c2cc3ccc(C)cc3nc21	0.35	0.06
O=C(Cc1cccs1)Nc1ccc(F)c(F)c1	2.6	0.92
O=C(NCCn1cccn1)C1CCC(=O)N(CCc2ccc(Cl)cc2)C1 (stereo not given)	0.28	-2.1
O=C(CN1C(=O)NC2(CCCC2)C1=O)OCCOc1cccc(Br)c1	0.89	-0.02
O=C(CS(=O)(=O)c1ccccc1)N(CCCN1CCOCC1)c1nc2c(F)cccc2s1	0.03	1.1
CCC1(CC)NC(=O)N(Cc2nc3ccccc3s2)C1=O	2	-0.93
CC(C)n1nc(C(=O)NCc2ccc3c(c2)OCO3)c2ccccc2c1=O	0.29	-1.5
CCCN1CCN(C(=O)CCCn2c(C)c3cnn(-c4ccccc4)c(=O)c3c2C)CC1	2	0.44
CCOC(=O)Cc1csc(NC(=O)/C=C/c2cccc(Br)c2)n1	0.69	-0.02
COC(=O)c1ccc(NC(=O)Nc2ccc3c(c2)nc(C)n3C)cc1	1.8	-0.19
O=C(Nc1ccc(Cl)cc1)C1CCCN(c2ncnc3c2nc2n3CCCCC2)C1 (stereo not given)	0.24	0.07
CC1(C)CNC(=O)c2sc(NC(=O)c3ccccc3)nc2C1	0.03	-2.1
COc1cc(S(=O)(=O)n2cnc3ccccc32)ccc1Br	2.2	-1.8
S=c1[nH]nc2nnc3ccccc3n12	0.02	-0.17
CCC(CC)C(=O)Nc1cccc(C(=O)N2CCCC2)c1	0.48	-0.63
